High-throughput results (PubChem BioAssay)
StopGo reporter: FMDV 2A StopGo reporter, luciferase signal. 410,000 tested, 1.2% active. Potency, µM (highest dose often 57.9 µM), inactives show at the top dose signal change, negative = less light. human cells with a luciferase reporter of 2A StopGo recoding; control for the full effect not named in the record; active = well fitted falling curve with a large enough effect; inconclusive = small, poorly fitted or top-dose-only effect; inactive = no such curve, though single readings can be large or run the other way; tested in HEK293T cells; further: nearly all actives have a fitted effect of over 45% in size; luciferase light after 4 h
RE007 growth inh: less growth of the S. pombe RE007 Vpr strain; S. pombe RE007 Vpr strain, BacTiter-Glo ATP luminescence, 24 h; control for the full effect not named in the record; Potency, µM (doses to about 92.2 µM), for inactives: at the top dose activity change, negative = less growth; 360,000 tested, 0.21% active; active = well fitted falling curve with a large enough effect; inconclusive = small, poorly fitted or top-dose-only effect; inactive = no such curve, though single readings can be large or run the other way;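 further: nearly all actives have a fitted effect of over 50% in size; the assay follows cell death caused by Vpr and the record does not say whether a fall means rescue or toxicity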
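Fission yeast strain RE007, carrying one chromosomally integrated HIV-1 vpr copy, was seeded at OD 0.01 in PMG+AL medium with 23 nL pinned compound. After 24 h at 30 °C and 99% humidity, viability was read by BacTiter-Glo luminescence.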
Starred values were filed as active, the others as inactive; ? = inconclusive; [ ] = another dose, or the depositor's remark. On the % scale 0 is the no-effect control and ±100 the full control effect; potency means the concentration at half of the fitted maximal effect. These rows are one share of the data; the hit share may differ from the screen's.

SMILES	StopGo reporter	RE007 growth inh
Cc1cccc(C)c1-n1nnnc1C1(C)CCC(=O)N1Cc1cccnc1 (stereo not drawn)	-24%	7%
Cc1ccc(C(=O)Nc2nc(C(N)C(C)C)cs2)cc1 (stereo not drawn)	20%	-2%
CC(C)(C)n1nnnc1C(c1ccccc1)N1CCN(C(=O)c2ccco2)CC1 (stereo not drawn)	-23%	80%
COc1ccc(C2CC=C(C(C)=O)CN2S(=O)(=O)c2ccc(C)cc2)cc1 (stereo not drawn)	0%	6%
CCc1nc2ccc(C(=O)Nc3ccc(NC(C)=O)cc3)cn2c1N(CCC(C)C)CCN(C)C	-2%	-25%
C[C@@H]1CN([C@@H](C)CO)C(=O)CCCn2cc(nn2)CO[C@H]1CN(C)C(=O)CCCN(C)C	-13%	-20%
CC(=O)N1CCN(C(=O)OC2CC3CC2[C@H]2CCCCN2C3=O)CC1 (stereo partly drawn)	-12%	7%
CNc1cncc(-c2ccc(F)c(F)c2)n1	22%	-22%
CSc1ncnc2c1ncn2CCCNCc1ccccc1	-27%	-6%
Cc1ccc2nc(-c3ccc(F)cc3)c(CC3CCCCC3)n2c1	21%	-14%
COc1ccc(C(=O)C(=O)N2CCN(c3ccccc3F)CC2)cc1	-4%	-8%
COc1ccc(CC(N)c2csc(Nc3nncc4ccccc34)n2)cc1 (stereo not drawn)	-19%	-22%[18.4 µM]
COc1ccc(Cc2c(-c3cccc(Cl)c3)nc3ccc(Br)cn23)c(C)c1	33%[activator]	-22%
O=c1c2sc3nc(N4CCOCC4)c4c(c3c2ncn1C(c1ccccc1)c1ccccc1)CCCC4	-11%	0%
CCN(CC(=O)Nc1c(F)cccc1F)C(=O)c1ccc2c(c1)C(=O)N(c1ccccc1C)C2=O	-19%	-2%

Exported with two lines to a compound: four of the compounds above
Order of values: StopGo reporter | RE007 growth inh
Cc1ccc2nc(-c3ccc(F)cc3)c(CC3CCCCC3)n2c1
  21% | -14%
COc1ccc(C(=O)C(=O)N2CCN(c3ccccc3F)CC2)cc1
  -4% | -8%
COc1ccc(CC(N)c2csc(Nc3nncc4ccccc34)n2)cc1 (stereo not drawn)
  -19% | -22%[18.4 µM]
COc1ccc(Cc2c(-c3cccc(Cl)c3)nc3ccc(Br)cn23)c(C)c1
  33%[activator] | -22%

Additional records follow.
SMILES	StopGo reporter	RE007 growth inh
COc1ccc(C=C2CCC3C(=O)CCCC3(C)C2=O)cc1 (stereo not drawn)	46%[activator]	-2%
COCCNC(=O)C1(C)CCN(Cc2noc(-c3c(C)noc3C)n2)C1 (stereo not drawn)	-27%	-13%
CNC[C@H]1Oc2cc(Br)ccc2S(=O)(=O)N([C@@H](C)CO)C[C@@H]1C	-24%	17%
CCC[C@H]1CN(Cc2ccccc2)C(=O)[C@@H]1CC(=O)NC	-3%	17%
Cc1cc(C)nc(Nc2nc(C(N)Cc3ccc(Cl)cc3)cs2)n1 (stereo not drawn)	-28%	4%
O=C(O)C[C@H]1c2ccc(C(F)(F)F)cc2S(=O)(=O)N1Cc1ccccc1	-7%	4%
CC1NC(=O)c2cccnc2-n2c1nc1ccccc1c2=O (stereo not drawn)	-6%	-28%
CC1(C(=O)NS(=O)(=O)c2ccc(C#N)cc2)CCN1C(=O)c1ccc(C2CCCCC2)cc1 (stereo not drawn)	-6%	0%[18.4 µM]
O=c1[nH]c(=O)n2c(c1-c1ccccc1)OC(CBr)C2 (stereo not drawn)	0%	-1%
COC(=O)N1CCCCC1c1cc(C(=O)NCc2ccccc2)no1 (stereo not drawn)	-9%	15%
CC(C)C[C@H]1CN([C@@H](Cc2ccccc2)CN2CCC[C@H]2CN2C(=O)C(=O)NC[C@@H]2Cc2ccccc2)C(=O)C(=O)N1CCc1ccccc1	-18%	4%
Nc1ccn(CCCN2CCN(C(=O)C3CC3)CC2)c(=O)n1	1%	-1%
CC(=O)Nc1cc(-c2ccc(S(C)(=O)=O)cc2)cn2c(-c3ccc(F)cc3)cnc12	0%	5%
COc1ccc(NC(=O)c2cc(C3CCCCN3C(=O)c3cccs3)on2)c(C)c1 (stereo not drawn)	19%	-7%[18.4 µM]
CC1(C)CC(=O)C=C(c2ccc(COC(=O)C(c3ccccc3)c3ccccc3)cc2)C1=O	-27%	-5%

Of the compounds above, two contain a Cl atom.
SMILES	StopGo reporter	RE007 growth inh
COc1ccc(Cc2c(-c3cccc(Cl)c3)nc3ccc(Br)cn23)c(C)c1	33%[activator]	-22%
Cc1cc(C)nc(Nc2nc(C(N)Cc3ccc(Cl)cc3)cs2)n1 (stereo not drawn)	-28%	4%

More compounds follow:
SMILES	StopGo reporter	RE007 growth inh
O=C(NCC1CC1)c1ccc(-c2cn[nH]c2)c2ccoc12	0%	-4%
CCc1ccccc1NC(=O)CN1CCN(CC(=O)Nc2ccc3c(c2)OC2(CCCCC2)O3)CC1	-9%	1%
O=C(C[C@@H]1C[C@H]2c3cc(NC(=O)Nc4ccccc4F)ccc3O[C@H]2[C@H](CO)O1)NCC(F)(F)F	-1%	7%
O[C@@H]1CN(CC2CCCCC2)[C@@H](c2ccc(Cl)cc2)C[C@H]1n1cc(C2CC2)nn1	?	-12%
CCCCn1nnnc1C1(C)CCC(=O)N1Cc1ccc(OC)cc1 (stereo not drawn)	?	-15%
CC1(C(=O)NS(=O)(=O)c2cccc(Cl)c2)CCN1C(=O)c1cccc2ccccc12 (stereo not drawn)	-6%	15%[18.4 µM]
CC1COc2c3ccccc3nn21 (stereo not drawn)	0%	15%
O=C(Cc1cccc([N+](=O)[O-])c1)Nc1ccccc1	4%	-16%
O=c1[nH]c2cc([N+](=O)[O-])cc(Cl)c2c2ccccc12	-15%	-2%
c1ccc(COc2ccc(-c3cc4nc(NCCOc5ccccc5)ccn4n3)cc2)cc1	0%	5%
Cn1c(=O)c2cc(NC(=O)NCCc3cccs3)ccc2n1Cc1cccc(C(F)(F)F)c1	-1%	1%
CCOC(=O)C1=CCN(S(=O)(=O)c2ccc(Br)cc2)C1c1ccccc1 (stereo not drawn)	?	18%
Cc1[nH]c2ccccc2c1C(=O)C(=O)NCc1nnnn1-c1ccc(F)c(F)c1	-17%	7%
COc1ccc(NC(=O)C2(C)CCN2Cc2ccc(C(C)C)cc2)cc1OC (stereo not drawn)	-16%	-1%
CC1=C(C(=O)N2CCCCCC2)CC(CC(=O)NCCc2ccccn2)C(=O)N1Cc1ccccc1 (stereo not drawn)	0%	-1%

2 neighbouring compounds already listed, for reference:
SMILES	StopGo reporter	RE007 growth inh
O[C@@H]1CN(CC2CCCCC2)[C@@H](c2ccc(Cl)cc2)C[C@H]1n1cc(C2CC2)nn1	?	-12%
CCCCn1nnnc1C1(C)CCC(=O)N1Cc1ccc(OC)cc1 (stereo not drawn)	?	-15%

Next section
SMILES	StopGo reporter	RE007 growth inh
CCN(C(=O)COC(=O)c1ccccc1Nc1ccccc1)c1c(N)n(Cc2ccccc2)c(=O)[nH]c1=O	-13%	15%
Brc1ccc2nc(-c3ccco3)c(Cc3ccsc3)n2c1	-18%	-4%
O=C(CC[C@H]1O[C@@H](n2ccc(=O)[nH]c2=O)[C@H](O)[C@@H]1O)N[C@@H](Cc1ccccc1)C(=O)NCC1CCCCC1	-14%	2%
C[C@@H]1CN([C@H](C)CO)C(=O)CCCn2nncc2CO[C@@H]1CN(C)C(=O)c1cc(-c2ccccc2)on1	-14%	11%
COc1cc(C(=O)N2CCCCC2c2cc(C(=O)NCc3cccnc3)no2)cc(OC)c1C (stereo not drawn)	-20%	-14%
CC(=O)c1ccc2c3c(ccc([N+](=O)[O-])c13)CC2	-3%	-19%
CCCCCCN1C[C@H](n2cc(C3CC3)nn2)[C@@H](O)C[C@@H]1c1ccccc1	-26%	-6%
COc1ccccc1CNc1nc(-c2ccccc2CO)c2sccc2n1	6%	3%[18.4 µM]
NC(COCc1ccccc1)c1csc(NC(=O)Nc2cccc(C(F)(F)F)c2)n1 (stereo not drawn)	-19%	7%[18.4 µM]
CCOc1ccc(-c2noc(-c3csc([C@@H]4O[C@H](CO)[C@H](O)[C@H](O)[C@H]4O)n3)n2)cc1	28%	-4%[18.4 µM]
CCC1(CC)C(=O)C2=C3C1[C@H](C(=O)OC)C=C(C(=O)OC)C[C@H]3n1c(=O)n(C)c(=O)n1[C@H]2C (stereo partly drawn)	-21%	-5%
CCCCN(C(=O)c1ccc(N(C)S(=O)(=O)c2ccc(C)cc2)cc1)c1c(N)n(CC(C)C)c(=O)[nH]c1=O	-2%	2%
C[C@@H]1CN([C@@H](C)CO)S(=O)(=O)c2ccc(Br)cc2O[C@@H]1CN(C)S(=O)(=O)c1cn(C)cn1	-8%	-3%
CCC(=O)N1CCCC(C(=O)Nc2nc3ccccc3[nH]2)CC1 (stereo not drawn)	49%[activator]	12%
Clc1cccc(Cc2c(-c3cccc(Br)c3)nc3c4ccccc4ccn23)c1	-11%	1%
COc1ccc(C#Cc2ccc(C3=CC(=O)CC(C)(C)C3=O)cc2)cc1	-11%	-6%
CC(=O)N1c2ccccc2N=C(c2ccc(C(F)(F)F)cc2)C1C(=O)NC1CCCC1 (stereo not drawn)	3%	6%
O[C@@H]1CN(Cc2cccs2)[C@@H](c2ccc(Cl)cc2)C[C@H]1n1cc(-c2ccc(F)cc2)nn1	-18%	-7%
COc1cc2c(cc1OC)C(c1ccccc1[N+](=O)[O-])=NCC2	-15%	-14%[18.4 µM]
C=CCOC(=O)C1=C[C@H](c2csc3ccccc23)C[C@H](OCCCCO)O1	-4%	8%
COc1ccccc1NC(=O)CCNC(=O)C1CCN(S(=O)(=O)c2ccccc2)CC1	-18%	7%
COc1ccc(NC(=O)C2Cc3c(-c4cccc(C(N)=O)c4)ccnc3O2)cc1OC (stereo not drawn)	-14%	-10%[18.4 µM]
OC(c1ccccc1)(c1nc(-c2cc(F)cc(F)c2)cs1)C(F)(F)F (stereo not drawn)	8%	?
COc1ccc(CNC(=O)c2cn(Cc3ccc(S(=O)(=O)N(C)C)cc3)c(=O)s2)cc1	?	-3%[18.4 µM]
O=c1cc(-c2ccccc2)oc2ccc3ccccc3c12	?	-29%
O=S(=O)(NC1CCN(Cc2ccccc2)CC1)c1ccc(F)c(F)c1	-2%	-4%
CCN(CC)C(=O)c1cccc(-c2csc(C(O)c3ccc(F)c(OC)c3)n2)c1 (stereo not drawn)	?	-16%
CN[C@H]1C[C@H]2c3cc(-c4ccccc4)ccc3CCN2C(=O)[C@H]1[C@H](C)O	-9%	-12%
C[C@@H](NCCCn1ccc(NC(=O)OCc2ccccc2)nc1=O)c1cccc2ccccc12	-1%	11%
COc1ccc(C(=O)C(OP(=O)(OC)OC)c2ccccc2OC)cc1 (stereo not drawn)	-6%	-2%
Cc1cccc(N(CC(=O)NCc2ccco2)S(=O)(=O)c2ccccc2)c1	13%	-10%
COC(=O)[C@@]1(Cc2ccc(F)cc2)[C@H]2c3cc(C(=O)N(C)C)n(CCc4c[nH]c5ccc(O)cc45)c3C[C@H]2CN1C(=O)c1ccccc1	-24%	-11%
Cc1ccc([C@@H]2CC(=O)[C@@H]3CN(S(=O)(=O)c4ccc(C)cc4)[C@H](c4cccc5ccccc45)C[C@@H]3N2S(=O)(=O)c2ccc(Cl)cc2)cc1	-15%	15%
CC(C)NC(=O)C1(C)CN(S(C)(=O)=O)CC(=O)N1CCCn1ccnc1 (stereo not drawn)	-12%	5%
O=C(O)Cc1ccc(NS(=O)(=O)c2ccc3c(c2)OCCO3)cc1	-18%	-10%
N#Cc1ccsc1NC(=O)CN1C(=O)NC2(CCCCC2)C1=O	3%	16%
Cc1nc(C(F)(F)F)ccc1C(=O)N1CCC(C)(C(=O)O)C1 (stereo not drawn)	-3%	0%[18.4 µM]
FC(F)(F)c1ccccc1Cc1c(-c2ccco2)nc2ccc(Cl)cn12	?	-11%
CCC(c1nnnn1C1CCCC1)N1CCN(C/C=C/c2ccccc2)CC1 (stereo not drawn)	-18%	-11%
CCCCCCn1c(=O)n2n(c1=O)C[C@]1(OC(=O)NCC3CCCCC3)CN(S(=O)(=O)c3ccc(C)cc3)C[C@]1(O)C2	?	-8%
COc1ccccc1NS(=O)(=O)c1cc(NC(=O)CN2C(=O)NC3(CCCCC3)C2=O)ccc1C	-6%	3%
Cc1ccccc1Cn1c(C)c(C(=O)NCc2cccc(Cl)c2)sc1=O	-1%	4%[18.4 µM]
COc1ccc(N2C(c3ccsc3)=Cc3cc4c(cc3C2c2c[nH]c3ccccc23)OCO4)cc1 (stereo not drawn)	-4%	-25%
CC(C)C[C@H]1CN(CCCC[C@H]2CNC(=O)C(=O)N2CCc2ccc(O)cc2)C(=O)C(=O)N1Cc1ccccc1	-20%	-6%
CCc1nc2ccc(C(=O)N3CCN(C(=O)c4ccco4)CC3)cn2c1N(CCC(C)C)CCN(C)C	-1%	-5%[18.4 µM]

Looked up by compound from the entries so far:
SMILES	StopGo reporter	RE007 growth inh
Cc1ccc([C@@H]2CC(=O)[C@@H]3CN(S(=O)(=O)c4ccc(C)cc4)[C@H](c4cccc5ccccc45)C[C@@H]3N2S(=O)(=O)c2ccc(Cl)cc2)cc1	-15%	15%
CCC(c1nnnn1C1CCCC1)N1CCN(C/C=C/c2ccccc2)CC1 (stereo not drawn)	-18%	-11%

Next section
SMILES	StopGo reporter	RE007 growth inh
O=C(OCc1ccccc1)N1CCC2CC1c1c2cccc1N1CCOCC1 (stereo not drawn)	-25%	-8%
Cc1cccc(NNC(=S)Nc2ccccc2)c1	89%[activator]	?
COc1ccc(NC(=O)C2(C)CCN2Cc2ccc(OC)c3ccccc23)cc1OC (stereo not drawn)	-24%	6%
O=c1[nH]c(C(F)(F)F)nc2c1nc1n2CCC1	15%	6%
NC(c1csc(Nc2cnccn2)n1)c1ccccc1Cl (stereo not drawn)	11%	-20%[18.4 µM]
